Sa growth inh – S. aureus growth inhibition at 42 and 30 °C, primary screen, LtaS inhibitor project, RN4220, two temperatures. OD600, 20 h, 42 °C; active compounds read low. relative growth, % (test concentration not listed). 170,000 tested, 0.53% active;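 active means growth at 42 °C up to 50% and 20 or more points under that at 30 °C, or under 10% at both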;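 further: 300 nL library stock went into each well; scaled to the means of positive and negative controls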
HCMV UL50-53 inh – inhibitors of HCMV UL50-UL53 interaction, biochemical, HTRF; 190,000 tested, 0.15% active; HCMV UL50-UL53 nuclear egress complex (human cytomegalovirus); inhibition, % (test concentration not listed); normalized percent inhibition;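 active means both replicates at 50% or more, plus weaker picks with an unusually low signal ratio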;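 further: stock transfer was 100 nL into about 20 µL; 0% = negative control wells and 100% = wells with untagged competitor protein; inactives centre near -12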
GIV Gai3 FP – inhibitors of GIV peptide binding to Galpha-i3, primary screen, biochemical, fluorescence polarization, FITC-GIV GBA peptide, rat Galphai3; 210,000 tested, 0.42% active; percent of control (FP), % (no concentration beside the values); 90 min; active compounds read low; scaled: aluminum fluoride 0%, vehicle 100%; Guanine nucleotide-binding protein G(i) subunit alpha-3 (Rattus norvegicus), P08753;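 active means replicate mean at 85% of control or lower, very high polarization wells dropped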;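 further: wells of about 15 µL received 100 nL stock; the first replicate is given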
Target sequence (P08753 whole entry, looked up): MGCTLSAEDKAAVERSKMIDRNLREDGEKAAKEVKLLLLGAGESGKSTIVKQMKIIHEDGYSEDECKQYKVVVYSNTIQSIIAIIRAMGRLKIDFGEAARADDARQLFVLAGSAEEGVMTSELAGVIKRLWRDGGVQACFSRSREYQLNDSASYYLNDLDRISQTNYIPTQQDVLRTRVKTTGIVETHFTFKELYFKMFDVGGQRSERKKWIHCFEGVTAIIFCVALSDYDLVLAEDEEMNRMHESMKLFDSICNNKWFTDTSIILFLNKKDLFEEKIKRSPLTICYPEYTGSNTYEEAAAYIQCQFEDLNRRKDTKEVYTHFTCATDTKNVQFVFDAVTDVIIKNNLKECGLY
Sa growth inh second temp – also measured in Sa growth inh; calls as there; relative growth, %; measured here: growth at 30 °C;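 optical density after 20 h as mean of two plates; 100% = untreated growth and lower means inhibition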
Starred values were filed as active, the others as inactive; . = not tested or not shown; & = joins results of further samples. No enrichment for hits; any-hit rate near 0.85%.

canonical_smiles | Sa growth inh | Sa growth inh second temp | HCMV UL50-53 inh | GIV Gai3 FP
CC(=O)c1cccc(NC(=O)CCn2nc(C)c(S(=O)(=O)N3CCCCC3)c2C)c1 | 112 | 102 | . | 110
O=C(C1CC1)N1CCc2cc(S(=O)(=O)N3CCCCC3)ccc21 | 99 | 88 | . | 95
CCOc1ccc(NS(=O)(=O)N(C)C)cc1 | 111 | 96 | -5 | .
O=C(C1=Cc2cc(Br)ccc2OC=C1)N1CCOCC1 | . | . | -19 | 105
COC(=O)C(Cc1c[nH]c2ccccc12)NC(=O)c1ccc(OC)cc1 (stereo not given) | 73 | 78 | . | 102
CCCCCCCNCc1ccc2c(c1)n(C)c(=O)n2C | . | . | -20 | 105
O=C(NCc1cccs1)C1CCCCC1 | 93 | 87 | -21 | .
CSc1nnc(C2CCCN(C(=O)Nc3ccc(Cl)c(C(F)(F)F)c3)C2)n1C (stereo not given) | 83 | 56 | -32 | 100
COC(=O)C(C(=O)NCC1CCCO1)C1CCCC1 (stereo not given) | 87 | 85 | -21 | 103
O=C(NCCc1nc2ccccc2n1Cc1ccc(F)cc1)c1ccco1 | 100 | 85 | 4 | 98
C1CCC2(C1)OCC(CN1CCOCC1)O2 (stereo not given) | 109 | 88 | -37 | .
Cc1c2c(nc3nc4ccccc4n13)CC(C)(C)CC2=O | 98 | 80 | -17 | 103
CCN1CCCC1CNCC(=O)Nc1ccc(C)c(Br)c1 (stereo not given) | 98 | 72 | -1 | 102
CCc1ccc(NC(=O)C2=CC(c3ccc4c(c3)OCO4)=NS(=O)(=O)N2C)cc1 | 114 | 81 | -12 | 106
COc1ccc(C(=O)NCc2ccccc2)c(OC)n1 | 118 | 90 | . | 103
CC(NC(=O)c1cccc(Nc2nc3ccccc3n3nnnc23)c1)c1ccccc1 (stereo not given) | 128 | 114 | . | 108
CCOC(=O)c1sc2ncnc(N)c2c1C | 97 | 76 | -11 | 94
O=C1CN(C(=O)c2c(F)cccc2Cl)C(c2ccc(F)cc2)c2cc(Br)ccc2N1 (stereo not given) | 72 | 61 | -8 | 105
COc1ccc(C)cc1NC(=O)CCS(=O)(=O)c1cc2c3c(c1)CCN3C(=O)CC2 | 90 | 90 | . | 102
c1ccc(-c2cn3nc(-c4ccccc4)c(-c4ccccc4)nc3n2)cc1 | 81 | 89 | -10 | .

Exported with two lines to a compound: part of the list above.
Screens in order: Sa growth inh | Sa growth inh second temp | HCMV UL50-53 inh | GIV Gai3 FP
> Cc1c2c(nc3nc4ccccc4n13)CC(C)(C)CC2=O
→ 98 | 80 | -17 | 103
> CCN1CCCC1CNCC(=O)Nc1ccc(C)c(Br)c1 (stereo not given)
→ 98 | 72 | -1 | 102
> CCc1ccc(NC(=O)C2=CC(c3ccc4c(c3)OCO4)=NS(=O)(=O)N2C)cc1
→ 114 | 81 | -12 | 106
> COc1ccc(C(=O)NCc2ccccc2)c(OC)n1
→ 118 | 90 | . | 103
> CC(NC(=O)c1cccc(Nc2nc3ccccc3n3nnnc23)c1)c1ccccc1 (stereo not given)
→ 128 | 114 | . | 108

Remaining list, next part:
canonical_smiles | Sa growth inh | Sa growth inh second temp | HCMV UL50-53 inh | GIV Gai3 FP
COc1ccc(/C=C\c2onc(C)c2S(=O)(=O)N2CCC(C(=O)Nc3cccc(OC)c3)CC2)cc1 | 73 | 91 | -20 | 111
O=C(Nc1ccccc1)C1CCN(S(=O)(=O)c2ccccc2)CC1 | 86 | 85 | . | 105
Cc1cc(C)c2c(n1)SCCN2C(=O)Nc1ccc(C)c(F)c1 | . | . | -7 | 107
COc1ccc2c(c1)CC(NS(=O)(=O)c1cccc(Cl)c1)CO2 (stereo not given) | . | . | -1 | 94
O=C(Nc1cccc(NC(=O)c2sc3ccccc3c2Cl)c1)c1cccc(Cl)c1 | . | . | -5 | 97
CSc1nsc(NC(=O)OCc2ccc(Cl)cc2)n1 | 100 | 64 | 2 | 97
CCCn1c(=O)c2ccc(C(=O)NC(C)C)cc2n2c(=O)n(CC(=O)NC3CCCCC3)nc12 | . | . | -34 | 104
Cc1n[nH]c(C)c1SCC(=O)O | 82 | 95 | 28 | .
CC(O)(P(=O)(O)O)P(=O)(O)O | 90&104 | 86&104 | -11&14&-17&-21 | 102
COC(=O)c1sc2nc3c(cc2c1N)CN(Cc1ccccc1)CC3 | . | . | -97 | 103
COc1ccc(OCc2nnc3n2CCC3)cc1 | 93 | 82 | -16 | .
ONC(=Nc1ccc(Cl)cc1Cl)c1cnccc1C(F)(F)F | 106 | 94 | -5 | 102
COc1ccc(CNC(=O)CCCn2nc(C)c3c(C)n(-c4ccccc4)nc3c2=O)cc1 | 96 | 85 | . | 98
O=c1cc(-c2ccccc2)oc2cc(OCc3ccccc3)cc(O)c12 | . | . | 8 | 99
COC(=O)c1sccc1NC(=O)C1CCCN(S(=O)(=O)N2CCCCCC2)C1 (stereo not given) | 103 | 79 | -23 | 101
Cc1nn(CCCC(=O)NCCc2c[nH]c3ccccc23)c(=O)c2c(-n3cccc3)n(-c3ccccc3)nc12 | . | . | -30 | 104
CCOC(=O)c1ccc(N=C2SC(C(=O)Nc3ccc(C(=O)OCC)cc3)CC(=O)N2C)cc1 (stereo not given) | . | . | -30 | 99
N#Cc1nc(-c2ccc(S(=O)(=O)N3CCCCC3)cc2)oc1N1CCCC1 | . | . | 11 | 105
CC(O)CN=c1cc(-c2ccccc2)oc2ccc(Cl)cc12 (stereo not given) | 68 | 54 | . | 96
O=C(Nc1nc(-c2cc3ccccc3oc2=O)cs1)c1cc(=O)c2ccccc2o1 | . | . | -16 | 99

Other compounds follow:
canonical_smiles | Sa growth inh | Sa growth inh second temp | HCMV UL50-53 inh | GIV Gai3 FP
CCC(CC)c1nnc(NC(=O)COc2ccc3c(c2)OCO3)s1 | 94 | 70 | . | 103
CNC(=O)c1ccc(Cn2c(SCc3ccc(F)cc3)nc3ccncc32)cc1 | 121 | 86 | . | 105
COc1ccccc1NC(=O)C1=C(C)Nc2nc(SC)nn2C1c1ccccc1Cl (stereo not given) | 111 | 90 | -16 | 107
Cc1ccc(N2CCN(C(=O)c3cn(C)c4ccc(S(=O)(=O)N5CCCC5)cc4c3=O)CC2C)cc1 (stereo not given) | 97 | 102 | -2 | 101
CCN1C(=O)C(=Cc2c(O)n(CC)c(=O)n(CC)c2=O)C(=O)N(CC)C1=O | 80 | 88 | -6 | 161
CCN(CC)CC#Cc1cccc(C)c1 | 112 | 78 | . | 102
O=c1c(-c2ccc(O)cc2)coc2cc(O)cc(O)c12 | . | . | -9&-12&14&-7&-7&-13 | 102&98
CCOC(=O)C1=C(C)N=C(SC)N(C)C1c1ccccc1 (stereo not given) | 99 | 96 | 3 | .
O=C(NC1CCCCC1)NC1(C(=O)N2CCC(O)CC2)CCCCC1 | 81 | 86 | -28 | 108
Cc1cc(-c2ccc(C)c(S(=O)(=O)NCc3cccs3)c2)on1 | 86 | 82 | . | 100
Clc1ccc(-c2cn3ccccc3n2)cc1 | 94 | 71 | -4 | .
O=C(Cn1c2ccccc2c(=O)c2cc(Cl)ccc21)NCc1ccc(F)cc1 | . | . | 11 | 104
C/C=C/C(=O)NC(C)c1ccccc1 (stereo not given) | 97 | 106 | -8 | 104
Cc1cc(NC(=O)CS(=O)(=O)c2cn(Cc3ccccc3Cl)c3ccccc23)no1 | 86 | 74 | -22 | 99
COC(=O)C1OC2(CCCC2)OC1C(=O)OC (stereo not given) | 77 | 95 | 3 | .
CCOC(=O)c1cc(NC(=O)c2ccc3c(c2)OCO3)cc(C(=O)OCC)c1 | 107 | 103 | -4 | 108
CCc1ccc(NC(=O)Cn2c(=O)n(Cc3ccc(C)cc3)c(=O)c3cccnc32)cc1 | 94 | 92 | -42 | 105
COc1ccc(N2CCN(C(CNC(=O)c3cccc(OC)c3)c3cccnc3)CC2)cc1 (stereo not given) | 88 | 88 | -19 | 104
O=c1oc(/C=C/c2ccco2)nc2sc3c(c12)CCCC3 | . | . | -4 | 107
O=C(O)C1CCCN1C(=O)/C=C/c1ccco1 (stereo not given) | 103 | 98 | -32 | 100

Further entries follow:
canonical_smiles | Sa growth inh | Sa growth inh second temp | HCMV UL50-53 inh | GIV Gai3 FP
CC1Oc2ccccc2N(C(C)C(=O)O)C1=O (stereo not given) | 104 | 84 | 4 | .
Cc1nc2cc(NC(=O)c3ccc(S(=O)(=O)N4CCCCC4)cc3)ccc2s1 | . | . | -12 | 101&98
O=C(Nc1ccc2c(c1)nc1n2CCN(Cc2ccccc2)C1)c1ccccc1Cl | . | . | -10 | 102
Cc1cc(NC(=O)c2sc3ncnc(N4CCN(C)CC4)c3c2C)no1 | . | . | -48 | 103
CCS(=O)(=O)Nc1ccc(C(=O)Nc2cc(C)ccc2OC)cc1 | 83 | 94 | -18 | 103
Nc1ccc(-n2nncc2-c2ccccc2)cc1 | 119 | 88 | -22 | .
O=C(Nc1ccccc1C(=O)OCc1c(F)cccc1Cl)c1ccco1 | 60 | 31 | -10 | 103
COc1ccc(Cl)cc1NC(=O)CN(c1cc(C)cc(C)c1)S(=O)(=O)c1c(C)n[nH]c1C | 99 | 74 | -15 | 106
O=C(N1CCOCC1)N1CCC(c2ccc(F)cc2)CC1 | 100 | 85 | -3 | 104
CCCCNc1nc2c(-c3cccc(C)c3)nnn2c2ccccc12 | 106 | 92 | -22 | 113
CC(C)C1C(C#N)=C(N)SC(N)=C1C#N | 60 | 55 | -15&0 | 121
Cc1nn(C(C)(C)C)c(OC(=O)c2cccc(F)c2)c1Sc1ccccc1 | 117 | 93 | -8 | 97
CC(C)(C)OC(=O)N1CCC(c2c(C(=O)N3CCN(c4ncccn4)CC3)cnn2-c2ccccc2)CC1 | 112 | 92 | . | 104
O=C(NC1CC1)C1CCCN(c2ccc3cc(S(=O)(=O)N4CCCCC4)ccc3n2)C1 (stereo not given) | . | . | -12 | 110
CCOc1ccc(CC(=O)N2CCc3cc(-c4noc(C)n4)ccc32)cc1OCC | . | . | 0 | 110
Cc1ccc(-c2cc(-c3ccccc3)c(C#N)c(S(=O)Cc3ccccc3)n2)cc1 (stereo not given) | 96 | 104 | -2 | 99
COc1ccc(CCNc2nc(-c3nnc(-c4ccc(C)cc4)o3)nc3ccccc23)c(OC)c1 | . | . | -14 | 96
CN(C)S(=O)(=O)c1cccc(COC(=O)Cn2cnc3ccccc3c2=O)c1 | 109 | 96 | 4 | .
O=C(O)CCCC(=O)Nc1cccc(NC(=O)c2ccco2)c1 | 94 | 84 | -2 | .
COc1ccc(C2CC(=O)Nc3c2c(C)nn3-c2nc(C)cc(C)n2)c(OC)c1OC (stereo not given) | 102 | 85 | -30 | 99

(cont.)
canonical_smiles | Sa growth inh | Sa growth inh second temp | HCMV UL50-53 inh | GIV Gai3 FP
Clc1ccc(-n2nnnc2-c2ccno2)cc1 | 99 | 105 | -5 | 103
COc1ccc(-c2cc(C(F)(F)F)n3nc(C(=O)Nc4ccc(C(C)=O)cc4)cc3n2)cc1OC | . | . | 5 | 103
Cc1cc(C)c(Cn2c(SCc3cccc(F)c3)nc3ccncc32)c(C)c1 | 139 | 13 | . | 103
Cc1ccc(OCC(=O)NCC2(N3CCOCC3)CCCCC2)cc1C | 89 | 90 | 8 | 107
Cc1ccc(-n2ccnc(NCCc3ccccc3)c2=O)cc1C | 88 | 91 | . | 98
Cc1oc2c(cc(NS(=O)(=O)c3ccc(Cl)cc3)c3ccccc32)c1C(=O)O | . | . | -32 | 109
C=CC(=O)n1nccc1-c1sc(COc2cccc(Cl)c2)nc1C | 130 | 87 | -26 | 108
CC(C)NC(=O)Cn1c(=O)nc(-c2ccccc2F)c2cc(Cl)ccc21 | 101 | 92 | . | 96
CCOC(=O)c1nc(Nc2ccc(F)cc2Cl)c2ccccc2n1 | . | . | -42 | 102
CN(C(=O)CSc1ncnc2ccccc12)c1ccccc1 | 102 | 93 | -14 | .
O=C(NC1CSCC1=O)c1ccccc1 (stereo not given) | 106 | 86 | -24 | 100
CCCSc1ncc(Cl)c(C(=O)Nc2sc3c(c2C(=O)NCCOC)CCCC3)n1 | 97 | 85 | 8 | 113
O=C(Nc1nccs1)C1CCC(CNS(=O)(=O)c2cccc3nsnc23)CC1 (stereo not given) | 98 | 88 | -1 | 105
CC(C)Cc1cc(-c2nnc3sc(COc4ccccc4Cl)nn23)n[nH]1 | . | . | -6 | 109
COc1ccc(OCC(=O)N2CCOCC2)cc1 | 97 | 112 | -6 | 98
O=C(CSc1nc2c([nH]c3ccccc32)c(=O)n1-c1ccc(Cl)cc1)N1CCc2ccccc21 | 90 | 94 | . | 100
Cc1cccc(Oc2nc3c(C)cccn3c(=O)c2/C=C(\C#N)c2nc3ccccc3s2)c1 | 88 | 71 | -52 | 101
CCN(CCO)C(=O)Cc1cc(=O)[nH]c(=O)[nH]1 | 87 | 86 | -28 | 97

Assay outcomes: PubChem BioAssay, ICCB-Longwood Screening Facility, Harvard Medical School
